Cruzain inh Det: inhibitors of Trypanosoma cruzi cruzain with detergent | AID 1478 | P25779 | purified cruzain, Z-FR-AMC fluorescence, 0.01% Triton | Potency, µM, inactives show max response, negative = inhibition, most hits filed as inhibitors | hit rate 0.43% among 200,000;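 further: plate controls were neutral wells for no effect and buffer without enzyme for full effect; nearly all actives have a fitted effect of over 40% in size; top concentration of the series not given in the record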
Target sequence (P25779 123-467 limits assumed): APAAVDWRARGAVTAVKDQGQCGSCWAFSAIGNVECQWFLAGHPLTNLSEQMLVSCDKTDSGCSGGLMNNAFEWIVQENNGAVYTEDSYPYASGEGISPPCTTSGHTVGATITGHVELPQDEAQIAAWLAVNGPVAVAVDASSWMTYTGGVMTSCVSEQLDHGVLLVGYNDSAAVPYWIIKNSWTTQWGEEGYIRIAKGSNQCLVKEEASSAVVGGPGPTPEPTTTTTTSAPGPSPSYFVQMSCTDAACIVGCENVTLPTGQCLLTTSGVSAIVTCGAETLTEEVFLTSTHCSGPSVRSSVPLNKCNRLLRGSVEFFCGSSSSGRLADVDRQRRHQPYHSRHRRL
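15 min RT preincubation of 1.5 nM cruzain with compound, then 2 uM Z-FR-AMC added; kinetic AMC fluorescence, 60 s delta. Triton X-100 0.01%, pH 5.5.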
Cruzain inh noDet: blocks cruzain activity in detergent-free assay. P25779. purified cruzain, Z-FR-AMC fluorescence, no detergent. Potency, µM, for the others: max response, negative = inhibition, hits mostly inhibitors. hit rate 2.3% among 200,000. AID 1476;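 further: plate controls were enzyme without inhibitor for no effect and buffer without enzyme for full effect; nearly all actives have a fitted effect of over 40% in size; top concentration of the series not given in the record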
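Purified cruzain at 1.5 nM, pre-incubated 15 min with compound at room temperature in 100 mM sodium acetate pH 5.5, 5 mM DTT, 0.00005% Triton X-100. Reaction started with 2 uM Z-FR-AMC; AMC fluorescence increase over 60 s gives rate.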
2A StopGo: FMDV 2A StopGo reporter, luciferase signal; human cells with a luciferase reporter of 2A StopGo recoding; control for the full effect not named in the record; Potency, µM (doses to about 57.9 µM), without a hit: at the top dose signal change, negative = less light; hit rate 1.2% among 410,000; AID 1159524; active = well fitted falling curve with a large enough effect; inconclusive = small, poorly fitted or top-dose-only effect; inactive = no such curve, though single readings can be large or run the other way; tested in HEK293T cells; further: nearly all actives have a fitted effect of over 45% in size; luciferase light after 4 h
* marks the source's active call; other numbers are inactive results; ? = inconclusive; & = joins results of further samples; [ ] = another dose, or the depositor's remark. Unless noted, the call rests on the fitted dose curve; in most records, active means well fitted curve in the direction sought with a large enough effect; inconclusive means small, poorly fitted or top-dose-only effect, or another doubt; inactive means no such curve, though single readings can be large; an effect the other way counts as inactive or inconclusive. Unless noted, on the % scale 0 is the no-effect control and ±100 the full control effect; potency means the concentration at half of the fitted maximal effect. The list is partial; rates above refer to the full screens.

A first look:
Compound	Cruzain inh Det	2A StopGo	Cruzain inh noDet
CSCC[C@H](C=O)NC(=O)[C@H](CC(C)C)NC(=O)[C@H](CC(C)C)NC(C)=O	0.0028µM*	-10%	0.0025µM*
COc1cc2c(cc1OC)C1N(CC2)C(=O)CCC12C(=O)CCCC2=O (stereo not given)	8.0%	-20%	-13%
COC1C[C@@H](O[C@@H]2C(C)C(=O)OC(C)C(C)[C@H](OC(C)=O)C(C)C(=O)[C@@]3(CO3)CC(C)C(OC3OC(C)CC(N(C)C)[C@H]3OC(C)=O)C2C)OC(C)[C@@H]1OC(C)=O (stereo not given in full)	-0.9%	-12%	6%
CCNc1ncc2nc(-c3ccc(OC)cc3)c(=O)n(Cc3cccc(OC)c3)c2n1	2.3%	-3%	-8%
COc1ccccc1CNc1cc(-c2ccccc2C)ncn1	-1.9%	?	-4%
COc1cccc(Nc2ncc3nc(-c4cccs4)c(=O)n(Cc4cccs4)c3n2)c1	2.1%	-23%	5µM*

All compounds of this part, previewed entries included:
Compound	Cruzain inh Det	2A StopGo	Cruzain inh noDet
CSCC[C@H](C=O)NC(=O)[C@H](CC(C)C)NC(=O)[C@H](CC(C)C)NC(C)=O	0.0028µM*	-10%	0.0025µM*
COc1cc2c(cc1OC)C1N(CC2)C(=O)CCC12C(=O)CCCC2=O (stereo not given)	8.0%	-20%	-13%
COC1C[C@@H](O[C@@H]2C(C)C(=O)OC(C)C(C)[C@H](OC(C)=O)C(C)C(=O)[C@@]3(CO3)CC(C)C(OC3OC(C)CC(N(C)C)[C@H]3OC(C)=O)C2C)OC(C)[C@@H]1OC(C)=O (stereo not given in full)	-0.9%	-12%	6%
CCNc1ncc2nc(-c3ccc(OC)cc3)c(=O)n(Cc3cccc(OC)c3)c2n1	2.3%	-3%	-8%
COc1ccccc1CNc1cc(-c2ccccc2C)ncn1	-1.9%	?	-4%
COc1cccc(Nc2ncc3nc(-c4cccs4)c(=O)n(Cc4cccs4)c3n2)c1	2.1%	-23%	5µM*
COc1ccc(CNc2nc(-c3cccc(NS(C)(=O)=O)c3)nc3ccccc23)c(OC)c1	1.8%	10%	-6%
N=C(N)SCCc1ccc(OCc2ccc([N+](=O)[O-])cc2)cc1	-4.8%	-15%	11%
N#Cc1ccc(CN2CCCC3(CCN(C(=O)c4ccco4)CC3)C2)cc1	-0.3%	-10%	1%
COc1ccc2[nH]cc(CCNc3cc(-c4ccc5c(c4)OCO5)ncn3)c2c1	-1.1%	4%	-28%
COc1cccc(Cn2c(=O)c(-c3cc(F)cc(F)c3)nc3cnc(N4CCNCC4)nc32)c1	-1.1%	-11%	-3%
CC(=O)ON(C(C)=O)S(=O)(=O)c1ccc(Cl)cc1	0.6%	-1%	3%
CCC1C2CC3C4N(C)c5ccccc5[C@]45CC(C2C5O)N3C1O (stereo not given in full)	0.7%	-3%	5%
c1csc(CNc2nc(-c3ccc4c(c3)OCO4)nc3ccccc23)c1	-0.5%	-11%	?
N#Cc1c(Cl)cccc1Cl	3.9%	10%	0%
COc1ccc(-n2c(=O)c(CCc3ccccc3)nc3cnc(N4CCN(C)CC4)nc32)cc1	-1.4%	-2%	4%
O=S(=O)(c1ccccc1)N1CCC2(CC1)CN(c1ccncc1)C2	0.4%	-17%	3%
COCC(=O)N1CCC2(CC1)CCN(c1ccccc1)CC2	3.0%	2%	5%
CN1CCN(c2nc(-c3ccoc3)nc3ccccc23)CC1	-5.7%	-21%	-7%
O=C(c1ccncc1)N1CCC2(CCN(Cc3nccs3)CC2)CC1	1.2%	0%	-1%
COc1ccccc1CCn1c(=O)cnc2cncnc21	3.7%	-15%	16%
COCC(=O)N1CCC[C@@]2(CCN(c3ncccn3)C2)C1	4.2%	-1%	1%
c1csc(CN2CC3(CCNCC3)C2)n1	-8.6%	-2%	-9%
COc1ccc(C2CC(=O)c3ccc(OC)cc3O2)cc1 (stereo not given)	0.7%	-5%	0%
O=C(O)c1ccccc1-c1oc2cc(O)ccc2c(=O)c1Oc1ccccc1	2.6%	0%	1%

Entries of single compounds, quoted from the list.
`COc1cccc(Cn2c(=O)c(-c3cc(F)cc(F)c3)nc3cnc(N4CCNCC4)nc32)c1` reads Cruzain inh Det = -1.1%; 2A StopGo = -11%; Cruzain inh noDet = -3%
`N=C(N)SCCc1ccc(OCc2ccc([N+](=O)[O-])cc2)cc1` reads Cruzain inh Det = -4.8%; 2A StopGo = -15%; Cruzain inh noDet = 11%

Next section:
Compound	Cruzain inh Det	2A StopGo	Cruzain inh noDet
O=S(=O)(c1ccccc1)N1CCC2(CCN(c3cccc(-c4ccccc4)c3)CC2)CC1	6.8%	-27%	15%
Nc1ncnc2c1[nH]c(=O)n2C1CC(O)C(CO)O1 (stereo not given)	2.7%	-9%	7%
CCCN(C/C=C\I)[C@@H]1CCc2ccc(O)cc2C1	-8.5%	-17%	12%
COc1ccc(Oc2ncc3nc(-c4cc(F)cc(F)c4)c(=O)n(C4CC4)c3n2)cc1	-0.2%	-18%	-19%
COc1ccc(C(=O)N2CCC3(CCCN(C(=O)NC(C)C)C3)CC2)cc1	3.8%	-1%	2%
Cc1noc(C)c1-c1cncnc1NC1CC1	4.7%	-13%	-2%
COc1ccccc1CN1CC[C@@]2(CCCN(C(=O)c3ccncc3)C2)C1	1.5%	-10%	-6%
CCC1OC(=O)C(C)[C@@H](O[C@H]2C[C@@](C)(OC)C(O)C(C)O2)C(C)[C@@H](O[C@@H]2OC(C)CC(N(C)C)C2O)[C@](C)(O)CC(C)/C(=N\OCOCCOC)[C@H](C)C(O)[C@]1(C)O (stereo not given in full)	1.0%	-8%	15%
COc1ncc2nc(-c3cc(F)cc(F)c3)c(=O)n(CCC#N)c2n1	-6.1%	-5%	-14%
CC(=O)N1CCC2(CCCN(c3ccccn3)C2)CC1	-1.9%	-7%	-12%
COc1ncc2nc(-c3cc(F)cc(F)c3)c(=O)n(Cc3cccs3)c2n1	1.3%	-9%	-1%
O=C(c1cc(C(F)(F)F)cc(C(F)(F)F)c1)N1CCC2(CCN(Cc3ccccc3)CC2)CC1	4.1%	-12%	3%
CCCCCCCCCCCCC/C=C/[C@@H](O)[C@H](CO)NCCCCCCCC	4.3%	12%[6.7 µM]	-2%
COc1ccccc1N1CCN(CCCCN2C(=O)CCC2=O)CC1	0.8%	1%&-9%	6%
COCCn1c(=O)c(-c2cn(C)c3ccccc23)nc2cnc(Oc3ccccc3)nc21	-5.4%	-3%	2%
CN(C)Cc1ccccc1-c1nccc(NC2CC2)n1	3.5%	-6%	-7%
CNc1ncncc1-c1ccccc1C(F)(F)F	4.3%	-6%	12%
CC(C)NC(=O)N1CCC2(CC1)CCN(C(=O)Oc1ccccc1)CC2	2.3%	-11%	11%
N#CCCn1c(=O)c(-c2cccc(C#N)c2)nc2cnc(N3CCOCC3)nc21	-2.7%	-9%	7%
C[C@@H]1Nc2ccc(Cl)cc2S(=O)(=O)N1	-3.7%	-4%	1%
CC(=O)OC1C=C[C@]2(C)C(CC(OC(C)=O)[C@@]3(C)C4=CC(=O)OC(c5ccoc5)[C@]4(C)CCC23)C1(C)C (stereo not given in full)	-1.4%	13%	12%
CS(=O)(=O)Nc1cccc(-c2cncnc2NCc2cccnc2)c1	1.9%	-17%	3%
Nc1ccc(C(=O)Oc2ccccc2)c(O)c1	-15%	54%[activator]	0%
CN1CCN(c2ncc3nc(-c4cccs4)c(=O)n(CCc4ccccc4)c3n2)CC1	-7.5%	-18%	20%
CC(C)=CCCC(C)C1CC[C@@]2(C)C3=C(CC[C@@]12C)C1(C)CCC(O)C(C)(C)C1CC3 (stereo not given in full)	-2.8%	3%	?

The list continues.
Compound	Cruzain inh Det	2A StopGo	Cruzain inh noDet
O=S(=O)(c1ccccc1)N1CCC2(CCN(Cc3ccccc3)CC2)CC1	2.7%	-6%	1%
CCCCCCCCCCCCCCCC(=O)N[C@@H](COP(=O)(O)O)C(=O)O	-0.1%	12%[6.7 µM]	?
Cc1cccc(CNc2cc(-c3cccnc3)ncn2)c1	0.6%	-14%	6%
CCNc1ncc2nc(-c3ccc(OC)cc3)c(=O)n(Cc3cccs3)c2n1	4.5%	-6%	-2%
Cc1ccc2c(=O)c3ccccc3n(CCCN)c2c1C	-0.1%	0%	-4%
COc1ccccc1CNc1ncncc1-c1ccc(C(=O)N(C)C)cc1	-0.9%	-2%	-5%
Cc1cnc(CNc2ncncc2-c2cccc(NS(C)(=O)=O)c2)cn1	3.9%	-10%	10%
CNc1nc(-c2ccccc2Cl)nc2ccccc12	0.8%	-7%	2%
COc1ccc(-c2nc3cnc(N(C)C)nc3n(Cc3ccc(F)cc3)c2=O)cc1	-4.0%	-12%	-10%
Cc1noc(C)c1C(=O)N1CCC[C@@]2(CCN(Cc3nccs3)C2)C1	-0.2%	-5%	4%
COc1ccc(Oc2ncc3nc(CCc4ccccc4)c(=O)n(C)c3n2)cc1	1.0%	-2%	-4%
Cc1cnc(CNc2ccnc(-c3ccccc3CN(C)C)n2)cn1	2.7%	?	-3%
Cc1noc(C)c1-c1ccc2ncnc(N(C)Cc3ccco3)c2c1	-0.2%	6%	6%
c1cnc(N2CC[C@@]3(CCCNC3)C2)nc1	0.2%	2%	-6%
Cc1c(C)c2c(c(C)c1O)CCC(C)(COc1ccc(CC3SC(=O)NC3=O)cc1)O2 (stereo not given)	-4.1%	-8%	-25%
CN(C)C(=O)c1ccc(-c2ccc3ncnc(N4CCC(C(=O)O)CC4)c3c2)cc1	2.8%	-3%	4%
CN1CCC2(CC1)CCN(C(=O)c1cccc(F)c1)CC2	-0.5%	-6%	-6%
CS(=O)(=O)N1CCC2(CCCN(C(c3ccccc3)c3ccccc3)C2)CC1	-6.0%	-15%	0%
N#Cc1cccc(-c2cc(-n3ccnc3)ncn2)c1	4.3%	-13%	-1%
COCC(=O)N1CCC2(CCCN(c3ccc(-c4ccccc4)cc3)C2)CC1	-5.7%	-13%	?
COc1ccc(C(=O)N2CCC3(CCN(Cc4ccccc4OC)CC3)CC2)cc1	1.7%	-8%	-4%
Cn1c(=O)c(-c2cc(F)cc(F)c2)nc2cnc(N3CCNCC3)nc21	-5.3%	-7%	8%
O=c1c(-c2ccc(F)c(F)c2)nc2cncnc2n1-c1ccccc1	-1.6%	7%	-15%
COC(=O)C(N)CS (stereo not given)	-1.7%	-1%	-4%
CN(C)CCN(C)CCc1ccc(Cl)c(Cl)c1	2.5%	-11%&-6%	2%

Following part.
Compound	Cruzain inh Det	2A StopGo	Cruzain inh noDet
COC(=O)N1CCC2(CCCN(Cc3cc(C(F)(F)F)cc(C(F)(F)F)c3)C2)CC1	-4.1%	-13%	14%
N#Cc1cccc(-c2ccc3ncnc(NCCN4CCOCC4)c3c2)c1	-12%	-2%	0%
C=C1CCC[C@]2(C)C[C@H]3OC(=O)[C@H](CNCCc4ccccc4OC)C3CC12 (stereo not given in full)	6.8%	-26%	-29%
COc1ccc2c(c1)O[C@@H]1c3ccc(OC)cc3OCC21 (stereo not given in full)	3.6%	-4%	-2%
COC1C(O)C(C)O[C@@H](OC2CC[C@@]3(C)C4CC[C@]5(C)C(C6=CC(=O)OC6)CC[C@@]5(O)C4CC[C@@H]3C2)C1O (stereo not given in full)	9.6%	?	?
CN(Cc1ccco1)c1ccnc(-c2ccoc2)n1	-5.5%	2%	-1%
Cl.Cl.Cl.Cl.Cl.Cl.N.N.N.N.NNNNN.NNNNN.O.O.[Ru].[Ru].[Ru]	3.2%	-25%	10%
N#Cc1ccc(CN2CC[C@@]3(CCCNC3)C2)cc1	1.8%	-1%	10%
O=S(=O)(c1ccccc1)N1CCC2(CCCN(Cc3cc(C(F)(F)F)cc(C(F)(F)F)c3)C2)CC1	-0.5%	-17%	18%
COc1ccc2c(c1)OCC(Cc1ccc(OC)c(OC)c1)C2=O (stereo not given)	-2.8%	?	28%
COc1ccc2[nH]cc(CCNc3ncncc3-c3ccccc3CN(C)C)c2c1	8.1%	-11%	-2%
COC(=O)N1CCC2(CCCN(C(=O)Nc3cccc(C#N)c3)C2)CC1	1.7%	-9%	-3%

Assay outcomes (PubChem)
